Bioassay records from PubChem.
Choline anaer gr = inhibitors of anaerobic choline-dependent gram-negative bacterial growth. calls only. Gram-negative bacterium anaerobic choline minimal medium, absorbance growth; active compounds read low; many inactives read as strong as hits in the columns shown. 0.2% of 55,000 active;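 active = growth z-score on choline under -2 at 7 or 20 h with little or no fall on glycerol, limits in tiers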;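 also: stock transfer was 300 nL into about 50 µL; the organism is E. coli; final concentration not given here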
Choline anaer gr early = recorded beside Choline anaer gr, whose call it bears; z-score; measured here: choline growth z-score, timepoint 1;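 score of optical density at 7 h as mean of two plates; lower means less growth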
* hit, by the source's call; i = inactive; & = joins results of further samples.

Preview (two entries):
Choline anaer gr | Choline anaer gr early | canonical_smiles
i | 1.36 | CCOC(=O)c1c(C)n(-c2ccccc2C)c2ccc(OC)cc12
i | 0.26 | CC(=O)Nc1cc(C(=O)N2CCC(Cc3ccccc3)CC2)ccc1Sc1ccc(C)cc1

All compounds of this part (from the top)
Choline anaer gr | Choline anaer gr early | canonical_smiles
i | 1.36 | CCOC(=O)c1c(C)n(-c2ccccc2C)c2ccc(OC)cc12
i | 0.26 | CC(=O)Nc1cc(C(=O)N2CCC(Cc3ccccc3)CC2)ccc1Sc1ccc(C)cc1
i | 0.96 | Cc1ccc(N2CCN(C(=O)c3cc4ccccn4n3)CC2)c(C)c1
i | 0.48 | CCC(C)NC(=O)C1CCCN(c2ccc(-c3ccc(F)cc3)nn2)C1 (stereo unspecified)
i | -0.21 | O=C(Nc1nccn(-c2ccc(Cl)cc2)c1=O)c1ccccn1
i | 0.79 | Cc1nc(-c2cc(NC(=O)Cc3ccccc3Br)c(C)s2)no1
i | 1.13 | CCN1c2cc(C)ccc2-n2cccc2C12CCN(S(=O)(=O)Cc1ccccc1)CC2
i | 0.35 | Cc1nc(-c2cc(S(=O)(=O)N3CCCC(C(=O)NCCc4nc5ccccc5[nH]4)C3)c(C)s2)no1 (stereo unspecified)
i | -1.47 | COc1ccc(N2CCN(c3nccc4ccc(C(=O)Nc5ccc(Cl)cc5C)cc34)CC2)cc1
i | 0.86 | COC(=O)c1c(C)nn(-c2ccc(C)cc2)c1N

Next section, overlapping the part above by 2 compounds.
Choline anaer gr | Choline anaer gr early | canonical_smiles
i | -1.47 | COc1ccc(N2CCN(c3nccc4ccc(C(=O)Nc5ccc(Cl)cc5C)cc34)CC2)cc1
i | 0.86 | COC(=O)c1c(C)nn(-c2ccc(C)cc2)c1N
i | 0.38 | CC(C)C/C=C/C=C\C(=O)N[C@@H](CC(N)=O)C(=O)N[C@@H]1C(=O)N[C@H](c2ccc(O)cc2)C(=O)N[C@H](CCCN)C(=O)N[C@H]([C@H](C)O)C(=O)N[C@@H](c2ccc(O)cc2)C(=O)N[C@H](c2ccc(O)cc2)C(=O)N[C@@H]([C@H](C)O)C(=O)N[C@@H](Cc2ccccc2)C(=O)N[C@H](CCCN)C(=O)N[C@@H](c2ccc(O[C@@H]3O[C@H](CO)[C@H](O)[C@@H](O)[C@@H]3O[C@@H]3O[C@H](CO)[C@@H](O)[C@H](O)[C@H]3O)cc2)C(=O)NC(C(C)O)C(=O)N[C@@H](c2ccc(O)cc2)C(=O)NCC(=O)N[C@@H](CC(C)C)C(=O)N[C@H](C)C(=O)N[C@@H](c2ccc(O)c(Cl)c2)C(=O)O[C@@H]1C(N)=O (stereo partly specified)
i | 1.43 | Cc1ccccc1COc1ccc(C2CC(=O)Nc3c2cnn3-c2ccc3nnc(C)n3n2)cc1 (stereo unspecified)
i | -0.21 | CCCS(=O)(=O)N1CCc2c(c(-c3nnc(SCC)n3CC)nn2C)C1
i | 0.3 | COc1cc(OC)c(NC(=O)NCCn2c(C(F)(F)F)nc3cccnc32)cc1Cl
i | 1.32 | Cc1cc2[nH]c(=O)c(=O)[nH]c2cc1S(N)(=O)=O
i | 0.08 | COC(=O)c1cccc(NC(=O)c2sc3ncccc3c2-n2cccc2)c1
i | -1.62 | Cc1nc2cc3c(cc2[nH]1)OCCO3
i | 0.27 | Cc1ccc(-c2nc3ccccc3c3nnc(SCc4ccncc4)n23)cc1
i | 0.8 | Cc1ccc(-c2noc3ncnc(N4CCC(C(=O)NC5CC5)CC4)c23)cc1
i | -1.24 | Cc1ccc(Nc2ncnc3c2cnn3C)cc1
i | -0.47 | CCS(=O)(=O)c1nc2ccc(NS(=O)(=O)c3ccc(C(C)(C)C)cc3)cc2s1
i | 1.28 | Cc1cc(-c2c(C)sc(C)c2S(=O)(=O)Nc2ccc(C)c(F)c2)n[nH]1
i | 0.3 | CN(C)C(=O)C1CNc2ccccc2O1 (stereo unspecified)
i | -0.4 | CN(C)c1ccc(C(CNC(=O)Cc2ccc(F)cc2)N2CCCC2)cc1 (stereo unspecified)
i | -1.63 | Fc1ccccc1-c1noc(N2CCOCC2)n1
i | 0.19 | O=C(Cc1ccc(NC(=O)N2CCSc3ncccc32)cc1)Nc1ccc(Cl)cc1F
i | -0.39 | O=C(Cn1nc2c3sccc3ncn2c1=O)Nc1ccc2c(c1)OCCO2
i | 0.67 | Cc1sc(C)c(S(=O)(=O)Nc2ccc(Cl)cc2)c1-c1cc(C(F)(F)F)on1
i | 0.69 | Cc1ccc(CNC(=O)Cn2cnc3c(sc4ncccc43)c2=O)cc1
i | 1 | Cc1cccc(N2CCN(S(=O)(=O)c3cc(-c4nnc(C5CC5)o4)co3)CC2)c1C
i | -0.3 | COCCNCc1ccc(-c2cccc(Cl)c2)o1
i | -0.64 | CC(C)CC(=O)Nc1ccc2nc(SCC(=O)N3CCOCC3)sc2c1
i | -0.03 | Cc1ccc(C)c(S(=O)(=O)Nc2ccc(Oc3ccc(C(=O)NCCC(C)C)cn3)cc2)c1
i | -0.89 | CCOC(=O)Cc1ccc(NC(=O)Nc2c[nH]c(=O)[nH]c2=O)cc1
i | 0.08 | Cc1ccc(Cl)cc1NS(=O)(=O)c1cc(-c2cc(C(F)(F)F)on2)sc1C
i | -0.38 | Cc1[nH]c(C(=O)N2CCN(c3ccc(Cl)cc3)CC2)c(C)c1S(=O)(=O)N1CCC(C)CC1
i | -0.26 | Cc1ccc(-c2cc(NC(=O)c3oc4cc(C)c(C)cc4c3C)on2)cc1
i | -0.79 | O=C(c1ccc2c(c1)OCCO2)N1CCCCC1
i | -1.38 | CCOC(=O)c1c(C)[nH]c(C)c1S(=O)(=O)N1CCCC(C(=O)Nc2cccc(C)n2)C1 (stereo unspecified)
i | 0.79 | COC(=O)c1ccccc1NC(=O)CSc1nc2c(=O)[nH]cnc2n1-c1ccccc1
i | -0.98 | CC1CCN(CC2CCN(C(=O)Nc3ccc(C(=O)NCCN(C)C)cc3)CC2)CC1
i | 0.3 | COc1ccc(Cc2nnc3sc(Cc4ccc(OC)c(OC)c4)nn23)cc1
i | -0.26 | Cn1cnc(S(=O)(=O)N2CCC(C(=O)NC3CCCCC3)CC2)c1
i | -0.06 | CCC(=O)Nc1ccc(N2CCn3c(nc4ccccc43)C2)cc1
i | -0.39 | O=C(CNC(=O)c1ccc(-c2noc(C3CCCC3)n2)cc1)Nc1ccc2c(c1)OCCO2
i | 0.28 | CC(C)COC(=O)OCN1C(=O)CN(CCN2CC(=O)N(COC(=O)OCC(C)C)C(=O)C2)CC1=O
i | 0.02 | CCOc1ccc(C2Nc3ccc(C)cc3[C@H]3OCCC[C@@H]23)cc1 (stereo partly specified)
i | 0.11 | CC(=O)Nc1ccc(N2C(=O)c3ccccc3CC2(C)C(=O)NCc2ccccc2)cc1 (stereo unspecified)
i | -0.17 | Cc1ccccc1C(=O)N1CCc2c(c(C(=O)NCc3ccccc3)nn2C)C1
i | -1.96 | COc1ccc(-c2cc(N3CCN(C(=O)Nc4ccc(C)c(C)c4)CC3)ncn2)cc1
i | 0.71 | O=c1c(S(=O)(=O)N2CCCC2)cccn1Cc1cccc(Cl)c1
i | -0.18 | Cc1cc(NC(=O)c2ccc(=O)n(Cc3ccccc3)c2)ccc1Br
i | -1.17 | CCOC(=O)c1c(C)c(S(=O)(=O)NCCC2=CCCCC2)c(C)n1C
i | -0.87 | Cc1noc2c1C(c1ccccc1)C1=C(CC(c3ccccc3O)CC1=O)N2 (stereo unspecified)
i | -0.24 | COc1ccc(-c2nn3c(N4CCN(C/C=C/c5ccccc5)CC4)cc(C)nc3c2C)cc1OC
i | 0.09 | O=C(NCCc1nc2cccnc2n1-c1ccccc1)Nc1ccccc1Br
i | -1.47 | COc1ccc(NC(=O)Cn2nc3c4sccc4ncn3c2=O)cc1OC
i | -1.16 | Clc1cccc(-n2ncc3c(N4CCc5ccccc54)ncnc32)c1
i | 0.37 | CC(C)NC(=O)c1csc2c1CCCCC2
i | 1.96 | O=C(CCc1nnc2c(=O)n(-c3cccc(F)c3)ccn12)NCCc1c[nH]c2ccccc12

Continuation.
Choline anaer gr | Choline anaer gr early | canonical_smiles
i | -0.71 | O=C(Nc1ccc2c(c1)OCCO2)N1CCCCCC1c1cccs1 (stereo unspecified)
i | -0.58 | CCOCCCNCc1ccc(-c2ccccc2F)o1
i | -0.41 | NC(C(=O)O)c1ccc(C(=O)O)c(C(=O)O)c1 (stereo unspecified)
i | -0.91 | CC1CCN(C(=O)c2cccc(C(=O)N3CCC(C)CC3)n2)CC1
i | 0.13 | CCn1c(=O)c2c(C(=O)NCCN3CCOCC3)cc(=O)n(CC)c2n(C)c1=O
i | -1.14 | Cc1ccc(-c2cc(C)nc3nc(N)nn23)cc1
i | 0.02 | COc1ccc(CCNC(=O)Cn2cnc3onc(C)c3c2=O)cc1OC
i | 1.43 | Cc1sc2ncc(C(=O)NCC3CCCO3)c(=O)n2c1C (stereo unspecified)
i | -2.22 | CCNc1nc(C(N)=O)c(NC(=O)c2cc(-c3ccc(C)c(C)c3)nc3ccccc23)s1
i | -0.5 | Cn1cc(C(CNC(=O)Nc2cccc(F)c2)c2cccnc2)c2ccccc21 (stereo unspecified)
i | -0.51 | Cc1[nH]c2ccc(-c3nnc(SC(C)C(=O)Nc4ccc5c(c4)OCCO5)o3)cc2c1C (stereo unspecified)
i | -1.52 | Cc1csc(-n2[nH]c(C)c(CC(=O)Nc3ccccc3)c2=O)n1
i | -0.15 | Cc1cc(C)nc(N2N=C(C(C)C)CC2=O)n1
i | 0.84 | COc1ccccc1Oc1cc(-c2ccc(C(=O)Nc3ccc(C)cc3C)cc2)ncn1
i | 1.12 | O=C(NCc1ccc(Cl)cc1)C1CCN(c2nccn3nc(-c4ccccc4)cc23)CC1
i | 0.64 | Cc1ccccc1NS(=O)(=O)c1cnc[nH]1
i | -0.2 | Cn1c(-c2nnc(SCC(N)=O)o2)cc2ccccc21
i | -0.49 | CN(C(=O)CSc1nc2ccccc2n1Cc1ccncc1)c1ccc(F)cc1
i | 0.25 | NC(=O)C1(N2CCCCC2)CCN(C(=O)c2cc3ccc4cccnc4c3[nH]2)CC1
i | 0.31 | O=C(Nc1ccc(Br)cc1)c1c(-c2ccc(F)cc2)nc2n1CCS2(=O)=O
i | -1.65 | COc1ccc(-c2ccc(OCCNS(=O)(=O)N(C)C)nn2)cc1
i | 0.38 | Cc1cccc(S(=O)(=O)Nc2ccc(N3CCN(c4cccc(Cl)c4)CC3)c(C(=O)O)c2)c1
i | 1.34 | Cc1cc(NC(=O)Cn2nc(C(=O)N3CCc4ccccc43)ccc2=O)no1
i | 1.09 | CS(=O)(=O)Nc1ccc(C2=NN(C(=O)CCC(=O)O)C(c3cccc(F)c3)C2)cc1 (stereo unspecified)
i | -0.77 | CCc1c(C)nc2ncnn2c1Sc1ccccc1NC(=O)Nc1cccc(Cl)c1
i | 0.42 | C[C@H](C(=O)O)c1cccc(C(=O)c2ccccc2)c1
i | -1.45 | CC1CCCCN1CCNC(=O)c1ccc2nc(-c3ccccc3)c(-c3ccccc3)nc2c1 (stereo unspecified)
i | -0.16 | Cc1ccc(F)cc1NC(=O)c1cnc2ccccn2c1=O
i | 1.17 | Cc1ccccc1CN(c1nc2nc(C)c(Cl)c(C)n2n1)S(=O)(=O)c1ccccc1
i | -0.14 | COc1ccc(-n2nc(C(=O)Nc3ccc(OC)c(Cl)c3)c(=O)n(C)c2=O)cc1
i | 0.67 | Cc1cc(C2CCCN2Cc2cn[nH]c2-c2cccc(Br)c2)on1 (stereo unspecified)
i | -0.1 | COc1ccc(-c2ccc(CNCCO)o2)cc1Cl
i | -1.95 | Cc1nn(Cc2ccc(F)cc2)c(C)c1NC(=O)COCc1cc(-c2ccc3c(c2)OCO3)on1
i | 1.48 | CCOc1ccccc1C(=O)NC1CCN(c2nc3ccccc3s2)CC1
i | 0.25 | COC(=O)CC1=CC(=O)N(CC(=O)Nc2ccc(C)cc2Br)c2ccccc2N1
i | 0.03 | O=C(Cc1csc(NC(=O)Nc2cccc(Cl)c2)n1)Nc1ccc(Cl)cc1
i | 1.99 | CCN(CC)S(=O)(=O)c1ccc2c(c1)cc(C(=O)N1CCN(c3ccc(Cl)cc3)CC1)n2C
i | -1.31 | O=C(CCC(=O)N1CCc2cc(S(=O)(=O)NC3CCCC3)ccc21)N1CCOCC1
i | 0.39 | O=C(Nc1ccc(F)c(F)c1)c1nc(N2CCOCC2)c2oc3ccccc3c2n1
i | 1.14&0.13 | CC(=O)Nc1ccc(OCC(O)CNC(C)C)cc1 (stereo unspecified)

Of the compounds above, 6 have bromine.
Choline anaer gr | Choline anaer gr early | canonical_smiles
i | 0.79 | Cc1nc(-c2cc(NC(=O)Cc3ccccc3Br)c(C)s2)no1
i | -0.18 | Cc1cc(NC(=O)c2ccc(=O)n(Cc3ccccc3)c2)ccc1Br
i | 0.09 | O=C(NCCc1nc2cccnc2n1-c1ccccc1)Nc1ccccc1Br
i | 0.31 | O=C(Nc1ccc(Br)cc1)c1c(-c2ccc(F)cc2)nc2n1CCS2(=O)=O
i | 0.67 | Cc1cc(C2CCCN2Cc2cn[nH]c2-c2cccc(Br)c2)on1 (stereo unspecified)
i | 0.25 | COC(=O)CC1=CC(=O)N(CC(=O)Nc2ccc(C)cc2Br)c2ccccc2N1

The listing continues.
Choline anaer gr | Choline anaer gr early | canonical_smiles
i | -0.28 | COc1ccc(S(=O)(=O)c2c(C)cc(C)n(CC(=O)Nc3ccc4c(c3)OCCO4)c2=O)cc1
i | 0.36 | CCCN(CCC)c1ncc(NS(=O)(=O)CC)cc1C(=O)O
i | 2.06 | CCn1c(SCc2nc(-c3cccc(OC)c3)no2)nc2cc(-c3ccccc3)sc2c1=O
i | -2.7 | CCN1c2cc(C)ccc2-n2cccc2C12CCN(S(=O)(=O)c1ccc(C(C)(C)C)cc1)CC2
i | -1.89 | CC(=O)NCC1CN(c2ccc(N3CCOCC3)c(F)c2)C(=O)O1 (stereo unspecified)
i | -0.59 | Cc1cccc(-c2nn(-c3ccccc3)c3nc(OCC(=O)NCc4cccc(F)c4)cc(C)c23)c1
i | -1.3 | CCOc1ccc(C2c3c(-c4cc(C)ccc4O)n[nH]c3C(=O)N2CCOC)cc1OCC (stereo unspecified)

Some of the compounds tested (hit frequency here may not be typical).
